From PubChem BioAssay
NPYLR7 agonist: activates Aedes aegypti NPYLR7 receptor | 270,000 tested, 0.15% active | activation, % at 10 µM | HEK293T NPYLR7/Galpha15, GCaMP6s calcium fluorescence | AID 1259423; in the data active = activation above about 40%;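 note: 0% = vehicle and 100% = reference agonist at the receptor; some compounds past the cut are filed as inactive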
NPYLR7 agonist max-min: further read-out of NPYLR7 agonist, marked with its call; activation, %; measured here: Max-Min RFU normalised activation; some inactives read as strong as hits;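 span of the calcium signal over five minutes; 0% = vehicle and 100% = native peptide agonist; compound fluorescence can raise it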
* hit, by the source's call. These rows are one share of the data (hit frequency here may not be typical).

Each structure is followed by: NPYLR7 agonist max-min	NPYLR7 agonist
- CC(=O)Nc1ccc(NC(=O)c2cn(C)c3c(=O)n(-c4ccccc4)c(=O)[nH]c23)cc1
    3.0	3.8
- C=C(C)C1CCC(C)OC1c1ccc2c(c1)OCO2 (stereo unspecified)
    -6.0	-3.3
- CCOC(=O)C(C)NC(=O)N1CCCC1c1cc(C(C)C)no1 (stereo unspecified)
    -4.5	-3.1
- C=CCNC(=O)C(NC(=O)c1ccc2c(c1)OCO2)C1CCN(C(=O)C2CCCC2)CC1 (stereo unspecified)
    10.7	6.2
- Cc1cccc(-c2nnc(NC(=O)C(Cc3ccccc3)NC(=O)CCC3CCCC3)s2)c1 (stereo unspecified)
    24.0	25.7
- CCCCCCC(=O)Nc1c(-c2cccc(F)c2)nc2cc(C)ccn12
    5.2	-1.8
- CCc1oc2ccccc2c1/C=C/C(=O)Nc1cccc(C(N)=O)c1
    -0.4	1.3
- O=C(Oc1cccc2cccnc12)N1CCOCC1
    -3.4	0.6
- COc1ccccc1N1CCN(c2ccc(NC(=O)Nc3cccc4ccccc34)cc2C(=O)NC2CC2)CC1
    25.0	22.4
- CN1CCNC(=O)C12CCN(C(=O)CN1CCCCCCC1)CC2
    -11.9	-10.4
- C=CCN(CC(=O)N(CCc1ccccc1)Cc1ccc(C)o1)S(=O)(=O)c1ccc(Cl)cc1
    7.1	7.7
- O=C(c1ccc(C(F)(F)F)cc1)N1CCC(CCCN2CCCC2)CC1
    -3.0	0.2
- O=C(NCCC(c1ccccc1)c1ccccc1)N1CCN(CCN2CCCC2)CC1
    2.5	4.7
- Cc1ccc(-n2c(SCC(=O)N3CCCc4ccccc43)nc3c(c2=O)SCC3)cc1
    -4.8	-3.1
- CC(NC(=O)c1ccc(-c2cc(-c3ccc(Cl)cc3)[nH]n2)cc1)c1cccc2ccccc12 (stereo unspecified)
    3.9	0.2

Following part:
Each structure is followed by: NPYLR7 agonist max-min	NPYLR7 agonist
- CC(C)(CNC(=O)Cc1coc2cc(O)ccc12)N1CCOCC1
    9.3	16.7
- CC=Cc1ccc(OCCN2C(=O)NC(C)(C)C2=O)c(OC)c1
    12.1	-5.4
- COc1ccccc1C(C)N(C)C(=O)c1cnn2c(C)cc(C)nc12 (stereo unspecified)
    0.9	2.8
- c1ccc(-n2cncn2)c(CNC2CCSC2)c1 (stereo unspecified)
    9.0	28.6
- O=C(COc1ccccc1)NCCn1ncc2c(N3CCN(c4ccccc4)CC3)ncnc21
    -1.0	0.7
- CC1Oc2ccc(C(F)(F)F)cc2N(c2cccc(F)c2)C1=O (stereo unspecified)
    2.2	6.2
- CCCNc1ncc(CN2CC[C@@H](N)[C@@H](OC)C2)cn1
    -0.4	0.5
- CCOC(=O)C1CCCN(Cc2nc(Cc3ccccc3Cl)no2)C1 (stereo unspecified)
    -3.9	-3.4
- COC(=O)C1=C(C)N(C)C(=S)NC1c1ccc(NC(=O)c2ccc(-c3ccccc3)cc2)cc1 (stereo unspecified)
    19.6	19.6
- C=CCN1C(=O)NC(c2ccc(C(F)(F)F)cc2)C2=C1CN(CCc1ccccn1)C2=O (stereo unspecified)
    28.9	23.9
- Cc1cccnc1CN(C)Cc1ccc(C2CCCCO2)s1 (stereo unspecified)
    3.9	6.3
- Cc1ccc(NC(=O)C(c2ccccc2)N(C)C)cc1Cl (stereo unspecified)
    -3.7	-2.6
- Fc1ccccc1C1c2cccn2CCCN1Cc1cccc(C(F)(F)F)c1 (stereo unspecified)
    12.6	7.0
- CCOCCN1CCN(C(C)c2nc(C)no2)CC1CC (stereo unspecified)
    5.7	7.0
- CCOCCCn1c(SCc2cc(OC)c(OC)cc2F)nc2cc(S(=O)(=O)N3CCCC(C)C3)ccc21 (stereo unspecified)
    6.0	15.3

Remaining list, next part
Each structure is followed by: NPYLR7 agonist max-min	NPYLR7 agonist
- COc1ccc(NC(=O)c2sc(=O)n(Cc3ccc(SC)cc3)c2C)cc1OC
    -3.2	-6.9
- O=C(c1ccc([N+](=O)[O-])cc1Cl)N1CCCC1
    0.3	2.1
- COc1ccc(-c2cccc(C(C)N(C)C)c2)nn1 (stereo unspecified)
    -0.6	2.2
- O=C1NC(c2ccccc2)(c2ccccc2)C(=O)N1Cc1ccccn1
    3.1	5.8
- CCc1nc2c(OCc3ccc4c(c3)OCO4)cccn2c1N(C)C(=O)c1ccc2c(c1)OCO2
    5.1	-3.1
- Cc1noc(CN(C)Cc2cccc(C(=O)Nc3ccc4nccnc4c3)c2)n1
    -3.0	-2.2
- O=C(O)CCC(=O)c1ccc(-c2ccn[nH]2)cc1
    2.3	-0.8
- O=C1OC(/C=C/c2ccccc2)=NC/1=C/c1cccc([N+](=O)[O-])c1
    -6.3	-4.0
- CCC(NC(=O)C(C)Oc1ccccc1Br)C(O)c1ccccc1F (stereo unspecified)
    3.7	6.0
- COc1cc2nc(COc3ccc([N+](=O)[O-])cc3)oc(=O)c2cc1OC
    -14.1	-6.3
- Cc1ccc(NC(=O)NCCNc2cc(-n3ccnc3C)ncn2)c(Cl)c1
    -20.9	-14.6
- COCCOC(=O)C1=C(C)NC2=C(C(=O)CCC2)C1c1cccc([N+](=O)[O-])c1 (stereo unspecified)
    -3.7	0.8
- COc1ccc([N+](=O)[O-])cc1CN1CCCn2cccc2C1c1ccc(C(F)(F)F)cc1 (stereo unspecified)
    6.7	-0.7
- CCOC(=O)c1cc(-c2ccc(N3CCN(C(=O)CCCC(=O)OC)CC3)cc2)n(-c2ccccc2C)n1
    -0.6	2.9
- CC(C)CCn1c(=O)c2c(nc3n2CCN3c2ccccc2)n(C)c1=O
    -3.5	0.4

(further entries)
Each structure is followed by: NPYLR7 agonist max-min	NPYLR7 agonist
- Fc1ccc(C2c3cccn3CCCN2Cc2cccc(C(F)(F)F)c2)cc1F (stereo unspecified)
    5.8	-8.1
- CSc1cccc(CN2CCCC(N3CCC(CO)CC3)C2)c1 (stereo unspecified)
    4.2	8.0
- O=C(OCc1cc(=O)n2cc(Br)ccc2n1)c1ccc(Br)o1
    -1.3	0.9
- Cc1ccc(Cc2nc(N3CCCNCC3)c3c(C)nn(-c4ccc(F)cc4)c3n2)cc1
    15.8	13.4
- NS(=O)(=O)N(Cc1cc(F)ccc1F)C1CCCC1
    1.8	3.9
- COc1ccc(-c2ccc(C=C3C(=O)N(C)C(=O)N(C)C3=O)o2)c([N+](=O)[O-])c1
    -22.3	-12.5
- CCc1nnsc1C(=O)N(Cc1ccc(N(C)C)cc1)CC1CC1
    -3.7	-1.9
- CC(C)Oc1ccc(CCNC(=O)c2cc(COc3ccc(F)c(F)c3)on2)cc1
    -5.5	-4.3
- O=C1OC(c2ccccc2)=N/C1=C\C(Cl)=C\c1ccccc1
    -2.8	-0.5
- NC1CCN(c2ccccc2C(=O)NCc2cccc(C(F)(F)F)c2)CC1
    11.1	-1.5
- CCCCc1ccc(NC(=O)c2cccn(OCc3ccc(F)cc3)c2=O)cc1
    7.2	11.4
- Cc1cc(=O)[nH]c(-n2nc(C)c(CCC(=O)NC(c3ccccc3)c3ccccc3)c2C)n1
    -2.2	5.3
- O=C(NC1CCc2[nH]c3ccc(Cl)cc3c2C1)c1ccc(F)c(F)c1F (stereo unspecified)
    7.9	19.2
- COc1cccc(C2CCCN2C(=O)C2Cc3cc(Cl)ccc3O2)c1 (stereo unspecified)
    -5.9	-5.2
- C=CCc1cccc2cc(C(=O)Nc3ccc(CC)cc3)c(=O)oc12
    11.5	9.7

Continued:
Each structure is followed by: NPYLR7 agonist max-min	NPYLR7 agonist
- O=S1(=O)CCN2C(c3ccc(F)c(F)c3)=CSC2=N1
    -2.6	-1.2
- CCCCc1ccc(N2CCn3c2nc2c3c(=O)n(CCCO)c(=O)n2C)cc1
    -3.1	0.5
- CCOc1ncccc1-c1ccc(C(C)NC(C)=O)cc1 (stereo unspecified)
    5.6	10.7
- O=C(/C=C/c1ccc(F)cc1)NNC(=O)CC12CC3CC(CC(C3)C1)C2
    -1.8	2.8
- CC(C)C(C)NC(=O)CSc1nc2ccccc2o1 (stereo unspecified)
    4.5	5.7
- CCCC(Cc1ccccc1)N(CCC)C(=O)c1ccc(=O)n(C)n1 (stereo unspecified)
    -4.8	-0.9
- COc1cccc(C2SCCN2C(=O)c2ccc([N+](=O)[O-])cc2)c1OC (stereo unspecified)
    14.5	10.7
- O=C(c1c(Cl)cccc1Cl)N1CCC(Cc2ccc3c(c2)OCO3)CC1
    24.6	22.5
- C=CCN(C(=O)c1ccc(-n2nc(C(=O)OCC)cc2-c2cccc(OC)c2)cc1)C1CCCCC1
    -13.3	-3.8
- O=C(O)c1ccc(Oc2cccc(Br)c2)cc1
    -0.4	1.2
- COc1ccc(-c2cc(C(=O)N3CCN(C(c4ccccc4)c4ccccc4)CC3)n(-c3cccc(Cl)c3)n2)c(OC)c1
    12.6	1.6
- CN(C)C1(CNC(=O)NC2CC2)CCCC1
    9.5	11.7
- O=C(Nc1ccc2c(c1)CN(C(=O)c1csnn1)CC2)c1ccc(C(F)(F)F)cc1
    8.5	12.0
- O=C1NCC2(CCCN(C(=O)C3(c4ccc(F)cc4)CCOCC3)CC2)O1 (stereo unspecified)
    6.7	20.5
- CCCS(=O)(=O)Nc1cccc(N2CCCCC2=O)c1
    4.7	5.2

Full records from above. Order of screens: NPYLR7 agonist max-min	NPYLR7 agonist
Record of CC(C)C(C)NC(=O)CSc1nc2ccccc2o1 (stereo unspecified) = 4.5	5.7
Record of O=C(/C=C/c1ccc(F)cc1)NNC(=O)CC12CC3CC(CC(C3)C1)C2 = -1.8	2.8
Record of O=C(c1c(Cl)cccc1Cl)N1CCC(Cc2ccc3c(c2)OCO3)CC1 = 24.6	22.5
Record of CCCCc1ccc(N2CCn3c2nc2c3c(=O)n(CCCO)c(=O)n2C)cc1 = -3.1	0.5
Record of O=S1(=O)CCN2C(c3ccc(F)c(F)c3)=CSC2=N1 = -2.6	-1.2

(list continues)
Each structure is followed by: NPYLR7 agonist max-min	NPYLR7 agonist
- CCSc1nnc2ccc(-c3cccs3)nn12
    -15.4	-12.7
- CN(Cc1ccccc1)c1ncccc1CNC(=O)CC1CCS(=O)(=O)C1 (stereo unspecified)
    0.6	1.8
- CC(Sc1ncn(-c2ccccc2)n1)C(=O)Nc1ccc([N+](=O)[O-])cc1 (stereo unspecified)
    -0.2	1.6
- O=C(Nc1ccccc1Cl)N1CC(=O)N2CCc3ccc(Cl)cc3C2C1 (stereo unspecified)
    12.6	0.4
- CCOc1ccc(C(=O)NCCc2cc3cc(C)c(C)cc3[nH]c2=O)cc1
    4.3	1.8
- CC(C)c1cccc(C(C)C)c1NC(=O)N1CCCN(C(=O)CN2CCc3sccc3C2c2cccc(F)c2)CC1 (stereo unspecified)
    -1.4	7.1
- CSc1ccccc1N1C(=O)CN(C(=O)Cc2ccc3c(c2)OCO3)CC1C (stereo unspecified)
    -0.8	-0.2
- Cc1ccc(CN2C[C@@H](C(=O)O)C[C@H](C(=O)NCc3cccnc3)C2)c(F)c1
    4.4	5.1
- COc1ccc(NC(=O)N2CCN(c3nc(-c4ccc(Cl)cc4)nc(C)c3Cc3ccccc3)CC2)c(OC)c1
    -1.7	-5.1
- Cc1ccc2c(c1)CCN1C(=O)CN(C(=O)c3cc(F)ccc3C(F)(F)F)CC21 (stereo unspecified)
    13.1	23.4
- Cc1cc(C)c(NC(=O)Cn2nnc(C(=O)Nc3ccc(Br)cc3)c2N)c(C)c1
    4.1	12.3
- O=C(CN1C(=O)NC2(CCCc3ccccc32)C1=O)c1cccc(Cl)c1 (stereo unspecified)
    -1.0	0.6
- OCCNc1cc(-c2cccc(Cl)c2F)ncn1
    -0.5	0.3
- CCOc1ccccc1-n1c(-c2ccccc2)cc(C(=O)Nc2ccc(C)c(C)c2)c1C
    24.1	17.1
- O=c1c(S(=O)(=O)c2ccccc2)c[nH]c2ccc(F)cc12
    5.9	7.4

Further results follow:
Each structure is followed by: NPYLR7 agonist max-min	NPYLR7 agonist
- CCCNC(=O)c1nnn(-c2ccc(OC)cc2)c1C
    3.8	3.9
- CCOC(=O)c1cnc2cc(C(F)(F)F)ccc2c1Nc1ccc(O)cc1
    6.2	8.7
- CCCCC(CC)C(=O)Nc1c(-c2ccc(OC)cc2)nc2ccc(C)cn12 (stereo unspecified)
    2.3	0.4
- Cc1ccc(NC(=O)N2CCC3(CC2)C(=O)N(CC(=O)NCCc2ccc(Cl)cc2Cl)CN3c2ccccc2)c(C)c1
    12.6	16.6
- COCCCNC(=O)c1ccccc1N1CCC(NC(=O)COc2ccccc2)CC1
    3.2	-2.2
- Cc1ncc(C[n+]2cccc(CO)c2)c(N)n1
    -1.5	-2.3
- CCOc1ccccc1NC(=O)Cn1c(-n2nc(C)cc2C)nc2c(c1=O)CCCC2
    -2.1	-0.8
- CCn1ccnc1CN(C)C(=O)c1ccc(OC2CCN(CCc3ccccc3)CC2)cc1
    -4.9	-4.0
- CSc1nc2n(n1)C(C1CC=CCC1)C=C(C(=O)O)N2 (stereo unspecified)
    20.8	1.7
- CCCCCN1CCN(c2nc3c(c(=O)[nH]c(=O)n3C)n2Cc2ccc(Cl)cc2)CC1
    0.1	2.2
- Cc1cc(C(=O)N(Cc2nnc(-c3ccc(Cl)cc3)o2)C2CC2)c2ccccc2n1
    -1.1	1.2
- CC(C)N(Cc1nnsc1Cl)c1ccc(F)cc1
    6.4	9.9
- FC(F)(F)Cn1nnnc1SCC1CC(C2CCCCC2)=NO1 (stereo unspecified)
    -16.3	-18.6
- CC(NC(=O)c1ccco1)C(=O)N=c1sccn1C (stereo unspecified)
    -1.2	-0.1
- COc1ccccc1/C=C/C1=NC(=C\c2cccc(OC)c2OC)/C(=O)O1
    -6.9	-2.9
- CCCCc1ncc(C2CC(=O)Nc3c2cnn3Cc2cccnc2)[nH]1 (stereo unspecified)
    -6.4	2.1
